# Bioassay records as filed in PubChem BioAssay.
# gsp antag: qHTS for Antagonists of gsp, the Etiologic Mutation Responsible for Fibrous Dysplasia/McCune-Albright Syndrome: qHTS. gsp-mutant cells, cAMP HTRF, 30 min; control for the full effect not named in the record. Potency, µM (doses to about 76.9 µM), for inactives: top-dose activity change, negative = inhibition, hits mostly inhibitors. actives 0.4% (n = 340,000). AID 624288, 2012; active = falling curve of any shape with a large fitted effect; inconclusive = falling curve, mostly with a smaller effect; inactive = flat or rising curve; cell line not stated here;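 note: intracellular cAMP measured with PDE inhibitor Ro 20-1724 present during compound exposure; potency is the fitted concentration of half-maximal effect; % is set by controls: 0 for no effect and ±100 for the full control effect; nearly all actives have a fitted effect of over 65% in size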
#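 HTRF cAMP measurement after 30 min RT detection following 30 min, 37C compound treatment alongside […] (added as 300 uM solution) in G418-selected cells seeded at 2000/well and grown 16–24 h.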
# Sfp inh: qHTS Assay for Inhibitors of Bacillus subtilis Sfp phosphopantetheinyl transferase (PPTase) | 4'-phosphopantetheinyl transferase ffp (Bacillus subtilis), Q9F4F7 | Biochemical Sfp PPTase activity, qHTS | Potency, µM, without a hit: max response, negative = inhibition, hits mostly inhibitors | actives 3.5% (n = 310,000) | AID 1490, 2009; active = well fitted inhibition curve with a large enough effect; inconclusive = small, poorly fitted or top-dose-only effect, or another doubt; inactive = no such curve, though single readings can be large or run the other way;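 note: the enzyme is Sfp with the accession as filed and its product quenches rhodamine fluorescence; potency is the fitted concentration of half-maximal effect; 0% = enzyme reaction without inhibitor and -100% = no enzyme wells; top concentration of the series not given in the record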
#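 Reaction rates are the 30-min fluorescence difference (ex 525, em 598 nm) in wells containing 15 nM Sfp, 5 uM rhodamine-CoA and 12.5 uM BHQ-2-YbbR at pH 7.6 with 10 mM MgCl2.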
# ClpP mod: qHTS Assay for Activators of ClpP. ATP-dependent Clp protease proteolytic subunit (Bacillus subtilis (strain 168)), P80244. Potency, µM (titrated, usually from 57.5 µM), for the others: top-dose activity change, negative = active. actives 1.9% (n = 340,000). purified B. subtilis ClpP, FRET peptide cleavage, 20 min. AID 651965, 2013; active = well fitted falling curve with a large enough effect; inconclusive = small, poorly fitted or top-dose-only effect; inactive = no such curve, though single readings can be large or run the other way; note: potency is the fitted concentration of half-maximal effect; the source files actives as falling curves though it sought activators and does not explain the sign; nearly all actives have a fitted effect of over 65% in size; many hits overshoot -100%
# Target sequence (P80244 whole entry, looked up): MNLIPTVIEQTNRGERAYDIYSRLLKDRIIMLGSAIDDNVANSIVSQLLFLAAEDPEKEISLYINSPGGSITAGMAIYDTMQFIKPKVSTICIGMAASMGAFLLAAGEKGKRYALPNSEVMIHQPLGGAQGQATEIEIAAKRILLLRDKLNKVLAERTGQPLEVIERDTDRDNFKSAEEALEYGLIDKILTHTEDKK
#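 Buffer: 100 mM Tris/HCl pH8, 100 mM KCl, 0.05% low protease BSA, 2.5% glycerol, 0.01% Tween-20. ClpP 10 microg/mL final; 20 min RT; delta FRET normalized to ADEP and DMSO controls.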
# TRPML1 inh: qHTS for Inhibitors of the Human Mucolipin Transient Receptor Potential 1 (TRPML1); Mucolipin-1 (Homo sapiens), Q9GZU1; TRPML1-inducible cells, Ca2+ dye fluorescence, FDSS; active compounds read low; inhibition of EC80 agonist-evoked calcium signal; activity change, negative = inhibition, % (concentration not given with the values); actives 0.02% (n = 390,000); AID 624415, 2012; in the data active means activity change below about -50%; inconclusive means about -30% to -50%; inactive means above about -30%;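 note: stimulus is agonist 54-4 at its EC80 concentration; % is set by controls: 0 for no effect and ±100 for the full control effect; the text of the record puts the active cut at -80%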
# Target sequence (Q9GZU1 whole entry, looked up): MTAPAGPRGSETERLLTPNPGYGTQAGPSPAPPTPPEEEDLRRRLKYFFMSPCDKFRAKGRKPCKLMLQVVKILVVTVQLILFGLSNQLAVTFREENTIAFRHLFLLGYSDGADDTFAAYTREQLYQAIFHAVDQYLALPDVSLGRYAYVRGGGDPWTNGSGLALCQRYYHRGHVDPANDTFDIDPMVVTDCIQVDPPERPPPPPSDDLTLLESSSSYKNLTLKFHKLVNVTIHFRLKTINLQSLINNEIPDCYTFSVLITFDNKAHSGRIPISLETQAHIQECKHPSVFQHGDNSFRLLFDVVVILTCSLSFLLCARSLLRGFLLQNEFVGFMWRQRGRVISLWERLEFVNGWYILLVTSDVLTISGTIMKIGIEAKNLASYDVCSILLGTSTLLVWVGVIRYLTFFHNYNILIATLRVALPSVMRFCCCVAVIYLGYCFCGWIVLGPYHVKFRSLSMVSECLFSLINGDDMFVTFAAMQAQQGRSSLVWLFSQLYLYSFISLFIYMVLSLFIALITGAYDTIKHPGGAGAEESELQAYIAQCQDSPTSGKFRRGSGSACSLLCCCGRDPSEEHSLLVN
#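 TRPML1-DL cells, Tet-induced overnight (~16 h, 37 °C) at 1,500 cells/well, were loaded with Ca8 no-wash dye plus quencher for 45-90 min at room temperature. Compounds were pinned during FDSS kinetic reading; agonist 54-4 at EC80 (4 uM final) then added.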
# Menin MLL FP FL: qHTS Assay for Inhibitors Targeting the Menin-MLL Interaction in MLL Related Leukemias: Competition With Fluorescein Labeled MLL-derived Peptide | Fluorescence polarization, fluorescein-MLL peptide displacement from menin | FP activity change, % at 61.4 µM | 290,000 tested, under 10 active | AID 1766, 2009; inconclusive = falling polarisation curve, or a change in total fluorescence; inactive = total fluorescence flat and polarisation flat or rising; no compound was filed as active; the % refers to the polarisation; negative = inhibition;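 note: % of control where 0% means no effect; inhibitors lower the polarisation; unlabelled MLL peptide was the positive control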
# TRPV1 potentiator: HTS Assay for Compounds that Act as Potentiators of the Vanilloid Receptor 1. TRPV1-expressing cells, Fluo-8 calcium influx, capsaicin EC20 potentiation; host cell line not named in the record; control for the full effect not named in the record. actives 0.02% (n = 320,000). AID 540277, 2011. Transient receptor potential cation channel subfamily V member 1 (Homo sapiens), Q8NER1. potentiation, % at 8.33 µM; active means potentiation above 80%; inconclusive means 30% to 80%; inactive means below 30%; note: 0% is about no effect
#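 Fluo-8 calcium influx in TRPV1-expressing cells, kinetic read (ex 480/em 520 nm). Compound added and read 3 min for agonist activity, followed by capsaicin at EC20 final and 2 min further read for enhancement.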
# gsp ag: qHTS for Agonist of gsp, the Etiologic Mutation Responsible for Fibrous Dysplasia/McCune-Albright Syndrome: qHTS. gsp mutant cells, cAMP HTRF, 30 min; control for the full effect not named in the record. Potency, µM (highest dose often 76.9 µM), for inactives: top-dose activation (cAMP increase), actives largely listed as activators. actives 0.13% (n = 340,000); active = well fitted activation curve with a large enough effect; inconclusive = small, poorly fitted or top-dose-only effect, or another doubt; inactive = no such curve, though single readings can be large or run the other way; cell line not stated here;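 note: phosphodiesterase inhibitor Ro 20-1724 added with compounds to block cAMP breakdown; potency is the fitted concentration of half-maximal effect; nearly all actives have a fitted effect of over 60% in size; about a fifth of the inactives were tested at one dose only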
#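 Cells in DMEM/10% FBS with G418 were pretreated with compounds in DMSO plus […] (300 uM stock) for 30 min at 37C. cAMP was measured by HTRF (cAMP-d2 plus anti-cAMP antibody-K) after 30 min at room temperature.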
# The depositor's hits bear a star; ? = inconclusive; / = not tested or not shown; & = joins results of further samples; [ ] = dose if it differs, or a comment.
SMILES,gsp antag,Sfp inh,ClpP mod,TRPML1 inh,Menin MLL FP FL,TRPV1 potentiator,gsp ag
COc1ccccc1C1C=C(c2ccc(Cl)cc2)Nc2nc(N3C(=O)CCC3=O)nn21 (stereo not given),3%,-13%,-7.1%,6,4.0,3,8%
Cc1ccc(NC(=O)CCNC(=O)c2ccc(Br)cc2)cc1S(=O)(=O)N1CCCCCC1,?,/,-0.3%,-1,/,9,-19%
CCC(C)C(NC(=O)C(N)CC(C)C)C(=O)NC(CCC(=O)OCc1ccccc1)C(N)=O (stereo not given),6%,5%,0.4%,-12,0.4,5,-15%
O=C(O)c1ccccc1NSc1ccccc1[N+](=O)[O-],-14%,-14%,/,-3,0.4,13,-7%[15.4 µM]
CS(=O)(=O)c1ccc2nc(NC(=O)CCNC(=O)c3ccc([N+](=O)[O-])cc3)sc2c1,5%,/,-3.4%,-8,/,24,1%
Cc1ccc(-n2nc3c(c2NC(=O)c2ccc4c(c2)OCO4)CSC3)c(C)c1,7%,28%,?,14,2.5,27,16%
Cc1ccc(NC2Sc3ccccc3NC2=O)cc1Cl (stereo not given),-6%,-1%,-3.0%,36,1.2,-6,-5%
COc1ccc(-c2cnc[nH]2)cc1,10%,16%,/,5,3.9,0,-11%[15.4 µM]
Cc1cc(C(=O)NCC(c2ccco2)N(C)C)ccc1[N+](=O)[O-] (stereo not given),5%,13%,/,-2,1.1,4,-8%[15.4 µM]
CCc1ccc(C(=O)CN2C(=O)NC3(CCCCCC3)C2=O)cc1,3%,/,-1.7%,10,/,11,0%
CCOC(=O)C1(Cc2cccc(F)c2)CCN(Cc2ccon2)CC1,3%,11%,/,16,-1.0,-15,0%[15.4 µM]
COc1cccc(NC(=S)NNC(=O)c2c([N+](=O)[O-])c(C)nn2C)c1,-12%,5%,-2.8%,6,3.5,1,-9%
Cc1c(N/C=C/C(=O)c2cccs2)c(=O)n(-c2ccccc2)n1C,-9%,3%,0.0%,-3,?,-5,-30%[inhibitor]
CCN(CC(=O)Nc1c(F)cccc1F)C(=O)c1ccc(Cl)c(S(=O)(=O)N2CCCC2)c1,-5%,/,-22%,1,/,-6,0%[15.4 µM]
O=C(CSc1ncnc2sc3c(c12)CCC3)Nc1ccccc1C(=O)O,-15%,16%,/,27,0.4,5,34%[15.4 µM]
Cn1c(CN2CCCCC2)nc2cc(NC(=O)c3ccc(Cl)cc3)ccc21,-15%,-1%,-3.7%&-10%,-12&-21,5.1,-28,-32%[inhibitor]
Cc1nnc(NCCc2ccccc2)n(N)c1=O,6%,-6%,?,-11,0.6,-30,-25%
COc1ccccc1OC(=O)c1ccc2nsnc2c1,-3%,-6%,1.5%,42,-0.8,-1,-9%
S=c1nc(C2CC2)n(-c2ccccc2)[nH]1,-4%,?,/,16,3.1,-3,4%
COc1ccc(NC(=O)COC(=O)CCCC2=NS(=O)(=O)c3ccccc3N2)cc1Cl,13%,7%,0.3%,33,/,0,22%
Cc1ccc(N2CCN(C(=O)c3nn(C)c4c3CS(=O)(=O)c3ccccc3-4)CC2)c(C)c1,5%,10%,1.3%&-2.9%,-3&23,-4.2,3,6%
CCOC(=O)c1c(C)[nH]c(C)c1C(=O)CSc1nc(N)cc(N)n1,9%,-2%,2.7%,34,1.6,4,19%[15.4 µM]
O=S(=O)(NCCc1ccccn1)c1cc(Cl)cc(Cl)c1O,-22%,/,-3.4%,7,/,2,3%
COCCNC(=S)NC1CC2CCC(C1)N2Cc1ccccc1 (stereo not given),5%,-10%,/,16,-1.9,-8,26%[15.4 µM]
COc1ccc(NC(=O)CSc2nnc(Cn3cnc([N+](=O)[O-])n3)n2C)cc1,13%,10%,-4.0%,2,0.5,-10,6%[15.4 µM]
O=C(NC(=O)c1ccc(Cl)cc1)Nc1cc(N2CCCCC2)ncn1,3%,/,0.4%,13,/,/,-3%
COc1ccccc1NC(=O)CSc1n[nH]c(-c2cccnc2)n1,-8%,2%,/,-7,4.1,10,8%[15.4 µM]
CCOC(=O)C1=C(C)N(CCCC(=O)O)C(=O)NC1c1ccccc1Cl (stereo not given),7%,/,-1.4%,-1,/,/,/
CC(=O)N(Cc1cc2c(C)cc(C)cc2[nH]c1=O)C1CCCCC1,-9%,7%,?,6,1.4,6,0%
O=C(Nc1nc(-c2ccccc2)ns1)c1cccs1,-33%,12%,0.5%,-9,0.8,-11,-2%
CC1=NN(C(N)=S)C(=O)C1N=Nc1cccc([N+](=O)[O-])c1 (stereo not given),-1%,0%,0.8%,1,1.7,-22,-29%
CCOC(=O)c1ccc(Nc2nc(C)cc(C)n2)cc1,10%,4%,-3.5%&-12%,10&5,3.1,6,10%
COc1ccc(NC(=O)CCCCCn2nnc3ccccc3c2=O)cc1,-5%,-6%,/,-15,-6.7,-7,2%
Cc1ccc(C)c(N2CCN(S(=O)(=O)c3c(C)noc3C)CC2)c1,-22%,7%,2.4%,15,-0.7,1,13%
Cc1ccc(C(=O)Nc2ccc(N3CCN(C(=O)c4cccs4)CC3)cc2)c(Cl)c1,-12%,1%,/,-10,-6.6,-11,14%[15.4 µM]
O=C(C1CCN(C2CC(=O)N(Cc3ccccc3)C2=O)CC1)N1CCCCCC1 (stereo not given),2%,?,-2.1%,22,0.7,0,-19%
CC(C)N1CCc2c(sc(NC(=O)c3ccc(S(=O)(=O)N4CCOCC4)cc3)c2C#N)C1,4%,-17%,-7.2%,3,?,19,-26%
Cc1cc2occ(CC(=O)N(C)CC(=O)Nc3cccc(F)c3)c2cc1C,-2%,19%,-3.3%,19,-2.3,-6,-24%
CCCNC(=O)CC1C(=O)N(Cc2ccccc2)C(C)c2nc3ccccc3n21 (stereo not given),-2%,21%,1.1%,-8,1.9,-5,12%
CCN(CC)C(=O)Cn1cnc2ccccc2c1=O,14%,0%,2.1%,-4,-2.4,0,4%
Cn1c(SCC(=O)NCC2CCCO2)nc2c(c1=O)SCC2 (stereo not given),1%,20%,-9.9%,-15,/,2,23%
CCN1CCN(C(=O)c2cc3c(=O)n4ccccc4nc3s2)CC1,14%,7%,/,18,1.8,3,?
COc1cccc(N2C(=NC(=O)c3ccccc3)SC3CS(=O)(=O)CC32)c1 (stereo not given),?,13%,/,-3,3.3,-5,17%[15.4 µM]
COc1ccccc1CNC(=O)CN(C)CC(=O)Nc1cccc(F)c1,19%,-2%,1.9%,9,-0.3,-2,-14%
CSc1ccc(CNCc2ccc3c(c2)OCO3)cc1,7%,-28%,-0.7%,4,5.7,13,15%
C(=N\Nc1nc(-c2cccnc2)nc2ccccc12)/c1ccccc1,-10%,-18%,/,-10,3.8,-12,-9%[15.4 µM]
Nc1cccc(NC(=O)c2cccs2)c1,6%,7%,1.0%,-4,-3.0,1,-1%
CC/C(=N/NC(=O)c1ccc(Br)cc1)c1ccc(OCCN2CCOCC2)cc1,-6%,14%,-3.4%,8,5.8,-19,1%[15.4 µM]
Cc1ccc(O)c(NC(=O)c2ccco2)c1,17%,2%,-1.7%,5,2.6,-3,-12%
COC(=O)Oc1c(Br)c(=O)oc2ccccc12,0%,/,50%,-21,/,/,7%
# Continuation:
SMILES,gsp antag,Sfp inh,ClpP mod,TRPML1 inh,Menin MLL FP FL,TRPV1 potentiator,gsp ag
COC(=O)C(NC(=O)C(C)Oc1ccccc1)C(C)C (stereo not given),2%,12%,-0.6%,7,6.9,-18,-17%
O=[N+]([O-])c1ccc(-c2nnc3cccc(Cl)n23)cc1,2%,10%,/,15,-0.9,21,2%
CCCN(CCO)Cc1ccc(Cl)c(Cl)c1,-28%,-19%,-3.3%,25,0.2,-1,-60%[inhibitor]
N/C(=N\OS(=O)(=O)c1ccccc1)c1ccncc1,-1%,5%,1.3%,-14,9.0,1,-32%[inhibitor]
Cc1cc(C(=O)Nc2ccccc2)oc1C,-13%,3%,-0.9%,-4,-0.1,21,-18%
COc1ccc(Cl)cc1NCCC(O)c1ccc(F)cc1 (stereo not given),-21%,1%,-1.8%,20,-2.8,15,-28%
CCOC(=O)N(NC(=O)C(O)(C(C)C)C(C)C)c1ccccc1,4%,15%,-0.2%,14,0.0,-13,?
O=C(CNC(=O)C1CCCCC1)NNC(=O)c1ccc(Cl)cc1Cl,-15%,27%,1.6%,8,/,1,3%
O=S(=O)(Nc1ccccc1N1CCOCC1)c1c(F)cc(F)cc1Br,-5%,/,1.0%,10,/,/,23%
C/C(=N\NC(=O)c1c(C)nc2ccccn12)c1ccc(C(C)(C)C)cc1,-9%,13%,/,5,6.8,-10,?
COC(=O)C1(CCSC)NC(c2ccccc2F)C2C(=O)N(c3ccc4c(c3)OCCO4)C(=O)C21 (stereo not given),-1%,25%,-4.0%,-6,0.5,-10,-5%
C/C(CC(=O)Nc1cccc(C(F)(F)F)c1)=N\NC(=O)Cc1ccccc1,-8%,16%,/,3,0.3,-17,5%[15.4 µM]
O=C(COc1ccc(Cl)cc1)N1CCN(C(=O)c2cccc(F)c2)CC1,5%,11%,1.1%,-2,3.3,0,-60%[inhibitor]
Cc1ccc(NC(=O)N(CCCN2CCOCC2)Cc2cccs2)cc1C,5%,-3%,-3.8%,?,0.0,13,-33%[inhibitor]
CC(C)(C)N1NC2(CCCCC2)NC1=S,11%,22µM*,/,-4,-2.2,-4,1%[15.4 µM]
Cc1cccc(/C(N)=N/OC(=O)c2cccnc2)c1,12%,4%,1.1%,30,-1.0,-7,1%
O=C(NCC1CCCO1)C1CCC(=O)N1CCc1ccccc1 (stereo not given),21%,-5%,-1.3%,0,0.4,1,-60%[inhibitor]
